# Bioassay records deposited in PubChem by several laboratories.
# PrP UTR inh – inhibition of PrP 5' UTR reporter expression | cell-based PrP 5' UTR mRNA reporter, plate reader | inhibition, % (test concentration not listed) | 340,000 compounds, 0.35% hits | AID 488862;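 active means every replicate at 50% or more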;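 further: 0 = median of the neutral control wells; tested in H4 reporter cells; numbers are from one replicate; inactives centre near -14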
# Mtb hypoxia rep – inhibitors of hypoxia-regulated fluorescent reporter in Mycobacterium tuberculosis; M. tuberculosis hypoxia-regulated fluorescent reporter, fluorescence; fluorescence inhibition, % (concentration not given with the values); 300,000 compounds, 0.1% hits;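 active means 35 to 45% if threefold the growth effect, above 45% if 1.5-fold the growth effect; inactive means the rest, general growth blockers included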;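 further: wells of about 50 µL received 100 nL stock; 0% = vehicle wells and 100% = reference inhibitor wells; whole bacteria with a GFP reporter of the hypoxia response; strong numbers were not always called active; many hits fall short of the cut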
# BJeLR viability – kills HRASV12-expressing BJeLR cells; BJeLR (HRASV12) viability, CellTiter-Glo ATP luminescence, 48 h; reference of the scale not given here; inhibition, % (test concentration not listed); 300,000 compounds, 0.17% hits;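 active means replicate mean above 50%; inconclusive means above 50% but judged a plate artefact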;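 further: 50 nL library stock added to about 25 µL; numbers are from one replicate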
# Bead autofluor – counter-screen for toxin protease inhibitors: compound fluorescence; compound autofluorescence counterscreen, microsphere flow cytometry; active compounds read high; fluorescence intensity (test concentration not listed); 360,000 compounds, 3.1% hits; AID 624483;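 active means at least 3 SD above the mean of all compounds, about 16000 in these data; inconclusive means too few beads counted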;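 further: 100 nL of 1 mM stock went into each well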
# Sa ugtP lethal – kills S. aureus RN4220 lacking UgtP; AID 1259309; growth inhibition, % (test concentration not listed); S. aureus RN4220 ugtP deletion, OD600 growth, 16 h; some inactives read as strong as hits; 330,000 compounds, 0.54% hits;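 active means z-score under -3 and OD600 up to 0.15 on both plates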;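 further: plate controls were untreated wells for no effect and antibiotic for full effect; wells of about 80 µL received 100 nL stock; the first replicate is given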
# Sa RN4220 lethal – kills Staphylococcus aureus RN4220. S. aureus RN4220 growth, OD600, 16 h. inhibition, % (test concentration not listed). 330,000 compounds, 0.33% hits. AID 1259311;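 active means z-score of -3 or lower and OD600 up to 0.18 on both plates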;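 further: plate controls were untreated cells for no effect and reference antibiotic for full effect; stock transfer was 100 nL into about 80 µL; one replicate is shown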
# Mtb hypoxia rep growth – also measured in Mtb hypoxia rep; calls as there; growth inhibition, %; measured here: M. tuberculosis growth (absorbance);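 0% = vehicle and 100% = reference antibiotic; read after six days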
# Numbers without * were called inactive; ? = inconclusive; / = not tested or not shown; & = joins results of further samples.
# Start of the data: the first 14 records, ahead of the listing:
SMILES,PrP UTR inh,Mtb hypoxia rep,Mtb hypoxia rep growth,BJeLR viability,Bead autofluor,Sa ugtP lethal,Sa RN4220 lethal
CN1CCc2nc3sc(C(=O)NC(C)(C)C)c(N)c3cc2C1,-20,13,7,1,2586,-3,-1.5
Nc1nonc1-c1nc2ccccc2n1CC(=O)N1CCCCC1,-9,/,/,-1,3038,-3,0.3
O=C(CN(C(=O)Cn1nnc(-c2ccc(F)cc2)n1)c1cccc(F)c1)NC1CCCC1,-15,-2,-3,4,5862,6,3.7
Cc1ccc(CN(CC(=O)NCCc2ccccc2)C(=O)c2csnn2)cc1,-6,-2,-2,-6,3746,9,2.8
COc1ccccc1OCc1nnc(SCC(N)=O)n1-c1ccccc1,-17,12,-9,5,4286,7,4.6
CC1CC2OC(=O)[C@]3(C)C2C(OC3(C)O)[C@]2(C)C(=O)C=CC12 (stereo partly drawn),/,-5,7,/,/,-1,1.0
COc1ccc(CN2CCN(Cc3ccco3)CC2)c(OC)c1,-8,1,5,-3,3750,12,-1.4
CC(C)Oc1ccc(C(=O)Nc2cccc(S(=O)(=O)N3CCCC3)c2)cc1,-26,1,19,/,3976,-16,-5.8
COc1ccccc1/C=C/C1(C(=O)NC2CCCC2)CC(=O)N1c1ccc(C)cc1 (stereo not drawn),-16,7,1,3,4705,-19,6.4
CC1CCN(C(=O)CSCC(=O)Nc2nc(-c3cccs3)cs2)CC1,-5,7,8,-1,6062,-5,-12
CCOC(=O)c1cc2c(=O)n3ccccc3nc2n(C(C)C)c1=NC(=O)c1ccncc1,6,-77,-17,4,4250,0,1.5
O=C(NCCOc1ccccc1)c1ccccc1SCC(=O)N1CCCC1,-18,9,-1,/,8350,0,4.6
Cc1cc(C)c2cc(C(=O)N3CCc4ccccc4C3)[nH]c2c1,-43,-9,6,2,5586,3,11
COc1ccccc1/C=C/C=NNC(=O)c1ccncc1,/,9,2,/,/,2,0.2

# The listing, previewed entries included:
SMILES,PrP UTR inh,Mtb hypoxia rep,Mtb hypoxia rep growth,BJeLR viability,Bead autofluor,Sa ugtP lethal,Sa RN4220 lethal
CN1CCc2nc3sc(C(=O)NC(C)(C)C)c(N)c3cc2C1,-20,13,7,1,2586,-3,-1.5
Nc1nonc1-c1nc2ccccc2n1CC(=O)N1CCCCC1,-9,/,/,-1,3038,-3,0.3
O=C(CN(C(=O)Cn1nnc(-c2ccc(F)cc2)n1)c1cccc(F)c1)NC1CCCC1,-15,-2,-3,4,5862,6,3.7
Cc1ccc(CN(CC(=O)NCCc2ccccc2)C(=O)c2csnn2)cc1,-6,-2,-2,-6,3746,9,2.8
COc1ccccc1OCc1nnc(SCC(N)=O)n1-c1ccccc1,-17,12,-9,5,4286,7,4.6
CC1CC2OC(=O)[C@]3(C)C2C(OC3(C)O)[C@]2(C)C(=O)C=CC12 (stereo partly drawn),/,-5,7,/,/,-1,1.0
COc1ccc(CN2CCN(Cc3ccco3)CC2)c(OC)c1,-8,1,5,-3,3750,12,-1.4
CC(C)Oc1ccc(C(=O)Nc2cccc(S(=O)(=O)N3CCCC3)c2)cc1,-26,1,19,/,3976,-16,-5.8
COc1ccccc1/C=C/C1(C(=O)NC2CCCC2)CC(=O)N1c1ccc(C)cc1 (stereo not drawn),-16,7,1,3,4705,-19,6.4
CC1CCN(C(=O)CSCC(=O)Nc2nc(-c3cccs3)cs2)CC1,-5,7,8,-1,6062,-5,-12
CCOC(=O)c1cc2c(=O)n3ccccc3nc2n(C(C)C)c1=NC(=O)c1ccncc1,6,-77,-17,4,4250,0,1.5
O=C(NCCOc1ccccc1)c1ccccc1SCC(=O)N1CCCC1,-18,9,-1,/,8350,0,4.6
Cc1cc(C)c2cc(C(=O)N3CCc4ccccc4C3)[nH]c2c1,-43,-9,6,2,5586,3,11
COc1ccccc1/C=C/C=NNC(=O)c1ccncc1,/,9,2,/,/,2,0.2
Cc1ccc(-c2noc(CCC(=O)Nc3ccc(C)cn3)n2)cc1,-6,/,/,-1,2699,-1,3.0
COc1cc(C(=O)NCc2nnc(SCC(=O)Nc3ccc4c(c3)OCO4)o2)cc(OC)c1OC,-2,-1,-3,-16,2085,5,2.7
COCc1cc(SC2CCCCC2)nc(C)n1,-11,-4,6,-3,3353,7,4.0
Cc1ccc(S(=O)(=O)Nc2cc(C(=O)NCCN(C)C)ccc2N2CCCCC2)cc1,-4,5,-2,/,3463,-13,-17
O=C1c2ccccc2C(=O)N1CCn1ccnc1,-21,14,-4,21,3914,4,-0.5
Cc1ccccc1C(=O)c1c[nH]c(C(=O)NCc2cccs2)c1,-6,/,/,8,2790,-5,-3.6
CN1CCN(c2cnn(-c3ccccc3)c(=O)c2Br)CC1,-32,3,-1,5,3970,5,9.8
COc1ccc(-c2c[nH]c(=O)[nH]c2=O)cc1OC,-5,4,9,5,4588,1,3.1
Cc1nn(CCC(=O)NNC(=S)Nc2ccc(Cl)cc2)c(C)c1[N+](=O)[O-],-13,2,4,-2,7836,-2,3.2
OC(COc1ccc(CNCCc2ccccc2F)cc1)CN1CCCCC1 (stereo not drawn),-16,16,3,5,3611,3,6.8
CCN(CC)c1ccc2c(Nc3ccccc3)c(C=O)c(=O)oc2c1,-10,8,8,-3,3537,8,3.9
CC1CN(C(C)CO)C(=O)c2cccc(NC(=O)C3CC3)c2OC1CN(C)S(=O)(=O)c1cccs1 (stereo not drawn),/,8,7,/,/,-9,3.9
COc1ccc(C(=O)Nc2ccccc2NC(=O)c2ccc(OC)cc2)cc1,-16,8,-2,-2,6155,2,5.4
O=C1C=C(Nc2cccc3cccnc23)c2ccccc2C1=O,64*,/,/,45,3819,/,/
CCOC(=O)CNc1nc(Cl)nc(Nc2ccc(OC)cc2OC)n1,-11,-12,-4,-2,3589,3,4.9
O=C(O)c1cc(Cl)ccc1-c1ccc(C=Cc2cc(C(F)(F)F)[nH]c(=O)n2)o1,/,4,12,/,/,-1,4.2
COC(=O)C(NC(C)=O)(Nc1cccc(C)n1)C(F)(F)F (stereo not drawn),-11,6,6,3,4447,3,2.5
O=C(Nc1ccnn1C1CCN(C2CCC2)CC1)c1cccc(F)c1,-18,9,-2,0,5345,4,2.7
CCOc1ccc(NC(=O)CN2C(=O)NC3(CCCC3)C2=O)cc1S(=O)(=O)N1CCCCC1,-6,7,2,/,8952,1,1.9
CCOc1ccccc1N1CCN(C(=O)C2=CC=CN3CCS(=O)(=O)N=C23)CC1,-16,-4,-3,/,3830,-3,-3.1
O=S(=O)(c1ccc(Cl)cc1)N(Cc1ccccn1)Cc1ccccn1,-14,7,0,-3,4055,0,2.4
CC1Cc2ccccc2N1C(=O)c1cnc2n(c1=O)CCS2 (stereo not drawn),1,4,-2,-2,4186,5,4.3
O=C(Nc1cccc(Cl)c1)N(CCN1CCOCC1)Cc1cccc(Cl)c1,-33,17,3,2,9236,-26,-8.0
Cc1ccc(CNC(=O)CCn2c(=O)oc3ccccc32)cc1,-9,16,13,0,3386,5,4.6
Cc1ccc[n+](CC(=O)c2ccc(Cl)cc2)c1,-26,4,12,1,4299,16,2.6
CCCCCC1CCC(c2ccc(C(N)=O)cc2)CC1 (stereo not drawn),2,2,2,9,3124,15,-1.1
O=C(/C=C/c1ccco1)Nc1ccc2c(c1)OCO2,-129,-12,-6,-6,3887,5,2.8
Cn1c(N2CCOCC2)c(C=NOC(=O)c2cccnc2Cl)c2ccccc21,/,0,1,/,/,-7,3.8
O=C(CCSc1nc2ccccc2o1)N1CCOCC1,-42,/,/,0,4721,-3,-2.3
NC1=NC[C@H](Cc2ccccc2)N1CCc1cccc(F)c1,-28,/,/,4,4110,/,/
COc1cc(CN(C(=S)NCC(=O)NC2CCCC2)C2CCCC2)cc(OC)c1OC,-28,-1,-4,4,2450,3,-2.3
O=C(NN=Cc1cc2c(cc1[N+](=O)[O-])OCO2)c1cccs1,/,11,15,/,/,4,9.5
CC(C)CC(=O)N1CCN(S(=O)(=O)c2ccc3ccccc3c2)CC1,-14,-3,0,-3,13911,13,4.0
COCCOC(=O)C1=C(C)NC2=C(C(=O)CC(C)(C)C2)C1c1ccc(N(C)C)cc1 (stereo not drawn),-4,6,5,-1,10775,4,2.4
COCCN(C(=O)COC(=O)Cc1ccccc1)c1c(N)n(Cc2ccccc2)c(=O)[nH]c1=O,-23,-1,7,-5,?,2,1.6
COCC(=O)Nc1ccc(C(C)C)cc1,-25,-1,-20,-3,8864,3,0.5
O=C(Nc1ccc(NS(=O)(=O)c2ccccc2)cc1)c1ccccc1Cl,-9,0,0,/,3771,0,-1.9
C1=C(c2ccccc2)CCNC1,-24,4,1,-4,4575,8,3.2
COc1ccc(CNCc2ccc3c(c2)OCO3)cc1Br,-3,15,5,3,3321,0,1.2
O=C(Cc1cccc(NC(=O)C2CCN(C(=O)c3ccccc3)CC2)c1)Nc1cccc(C(=O)N2CCOCC2)c1,-25,-1,4,/,3485,0,5.9
COc1cc(CC2C(=O)Nc3ccccc32)cc(C)c1O (stereo not drawn),-23,6,-12,5,2955,2,3.4
O=C(c1ccccc1)c1ccc2nc(-c3ccc(NC(=O)c4ccccc4Br)cc3)[nH]c2c1,-11,-5,3,8,5374,15,16
CCN1C(=O)C2C(c3ccc(-c4ccc5c(c4)OCO5)c(OC)c3)N[C@@](C)(C(=O)OC)C2C1=O (stereo partly drawn),/,7,7,/,/,-2,2.5
CCOc1ccc(C(=O)NC(=S)Nc2ccc(NC(=O)c3ccco3)c(C)c2)cc1[N+](=O)[O-],-9,3,-13,-4,2667,7,-0.6
CCOC(=O)C1CCCCC12C(C#N)=C(N)Oc1n[nH]c(C)c12 (stereo not drawn),-23,2,1,3,4542,1,2.1
O=C(Cc1cccs1)NCc1ccc2c(c1)OCO2,-43,20,11,-9,4509,8,2.8

# Other structures.
SMILES,PrP UTR inh,Mtb hypoxia rep,Mtb hypoxia rep growth,BJeLR viability,Bead autofluor,Sa ugtP lethal,Sa RN4220 lethal
CC(=O)Nc1ccc(S(=O)(=O)NCCC(=O)N2CCCCC2)cc1,-15,-3,11,-5,/,-6,-0.6
C[C@H]1C=C(C(=O)N2CCOCC2)O[C@@H](OCc2ccc(CO)cc2)C1,-17,9,6,5,3609,-5,-12
Cn1ncc2c(Nc3ccc4ccccc4c3)ncnc21,-102,18,9,-13,10820,2,31
O=C(N/C(=C/c1cccnc1)C(=O)N1CCOCC1)c1ccccc1F,-25,-4,3,-11,5366,2,4.8
C=CCN(C(=O)CCC(=O)Nc1cc(C)on1)C(C(=O)NC(C)(C)C)c1cccc(OC)c1OC (stereo not drawn),-11,4,4,-4,4194,-2,1.3
OC(CN1CCN(c2ccccc2)CC1)Cn1c2ccccc2c2ccccc21 (stereo not drawn),-20,/,/,7,2602,-13,-6.9
CC(C)(C)OC(=O)CC1CC=CCC(CC(=O)NCCO)C(=O)NCCOC1=O (stereo not drawn),/,-3&19&9,3&9&4,/,/,13&2&-6,8.2&6.7&3.9
